D2 potentiator: Beta-Arrestin HTS for Positive Allosteric Modulators of the Human D2 Dopamine Receptor: Potentiators; DiscoveRx D2 beta-arrestin cells, luminescence, 90 min; 100% = 57 uM dopamine signal; potentiation, % (no concentration beside the values); hit rate 0.23% among 360,000; active = potentiation of 50% or more; inconclusive = 30% to 50%; inactive = 30% or less;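 also: compound concentration not given in the record; tested on top of an EC20 dose of dopamine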
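PathHunter D2 cells, attached overnight at 37 deg C, received compound in DMSO plus dopamine at EC20 (50 nM final) for 90 min at 37 deg C. Beta-arrestin recruitment was read as luminescence after 1 h with detection reagent at ambient temperature.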
CtBP-E1A inh: qHTS Assay for Inhibitors of the CtBP/E1A Interaction; AlphaScreen GST-E1A/His-CtBP binding, 1536-well; stronger effect = lower value; control for the full effect not named in the record; hit rate 0.49% among 340,000; AID 651724, 2012; CtBP / adenovirus E1A interaction (AlphaScreen); activity change, % (no concentration beside the values); in the data active means activity change below about -65%; inconclusive means about -30% to -65%; inactive means above about -30%; also: % is scaled to controls: 0 for no effect and ±100 for the full control effect; compound concentration not given in the record
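Steps: dispense buffer (Tris pH 8.0, NaCl 300 mM, TCEP 1 mM, BSA, Tween 20); add 5X protein mix (GST-E1A, His-CtBP, 125 nM each); pin 23 nL compound; 2 h at 37 °C, dark; add 5X beads (50 ug/mL); 1 h; read.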
D2 agonist: Beta-Arrestin HTS for Positive Allosteric Modulators of the Human D2 Dopamine Receptor: Agonists; activation, % (concentration not given with the values); DiscoveRx PathHunter D2 beta-arrestin, luminescence, 90 min; 100% = 57 uM dopamine signal; AID 624465, 2012; D(2) dopamine receptor (Homo sapiens), P14416; hit rate 0.084% among 360,000; in the data active = activation above about 40%; inconclusive = about 15% to 40%; inactive = below about 15%; also: compound concentration not given in the record; the text of the record calls up to 30% inactive
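DiscoveRx PathHunter D2 beta-arrestin cells (2,100/well) attached overnight, then compound-stimulated 90 min at 37 C in HBSS/10 mM HEPES/0.1% Tween-20 buffer; beta-galactosidase complementation read by luminescence after 1 h at ambient temperature. Dopamine 57 uM final (EC100) as control.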
Sfp PPTase inh: qHTS Assay for Inhibitors of Bacillus subtilis Sfp phosphopantetheinyl transferase (PPTase); AID 1490, 2009; Biochemical Sfp PPTase activity, qHTS; Potency, µM, inactives show max response, negative = inhibition, hits mostly inhibitors; 4'-phosphopantetheinyl transferase ffp (Bacillus subtilis), Q9F4F7; hit rate 3.5% among 310,000; active = well fitted inhibition curve with a large enough effect; inconclusive = small, poorly fitted or top-dose-only effect, or another doubt; inactive = no such curve, though single readings can be large or run the other way;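 also: the enzyme is Sfp with the accession as filed and its product quenches rhodamine fluorescence; potency is read from the fitted curve at half-maximal effect; 0% = enzyme reaction without inhibitor and -100% = no enzyme wells; top concentration of the series not given in the record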
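Step 1, compound plus 15 nM Sfp-PPTase, 15 min, room temperature. Step 2, add rhodamine-CoA (5 uM) and BHQ-2-YbbR (12.5 uM). Step 3, read 525/598 nm fluorescence at 0 and 30 min.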
Six1-Eya2 blk: qHTS Assay for Inhibitors of the Six1/Eya2 Interaction; Homeobox protein SIX1 (Homo sapiens) + Protein phosphatase EYA2 (Homo sapiens), …; AlphaScreen GST-Six1/His-Eya2 binding, biochemical; stronger effect = lower value; control for the full effect not named in the record; activity change, % (no concentration beside the values); hit rate 0.56% among 360,000; in the data active = activity change below about -65%; inconclusive = about -30% to -65%; inactive = above about -30%; also: % is scaled to controls: 0 for no effect and ±100 for the full control effect; compound concentration not given in the record
Target sequence (O00167 whole entry, looked up): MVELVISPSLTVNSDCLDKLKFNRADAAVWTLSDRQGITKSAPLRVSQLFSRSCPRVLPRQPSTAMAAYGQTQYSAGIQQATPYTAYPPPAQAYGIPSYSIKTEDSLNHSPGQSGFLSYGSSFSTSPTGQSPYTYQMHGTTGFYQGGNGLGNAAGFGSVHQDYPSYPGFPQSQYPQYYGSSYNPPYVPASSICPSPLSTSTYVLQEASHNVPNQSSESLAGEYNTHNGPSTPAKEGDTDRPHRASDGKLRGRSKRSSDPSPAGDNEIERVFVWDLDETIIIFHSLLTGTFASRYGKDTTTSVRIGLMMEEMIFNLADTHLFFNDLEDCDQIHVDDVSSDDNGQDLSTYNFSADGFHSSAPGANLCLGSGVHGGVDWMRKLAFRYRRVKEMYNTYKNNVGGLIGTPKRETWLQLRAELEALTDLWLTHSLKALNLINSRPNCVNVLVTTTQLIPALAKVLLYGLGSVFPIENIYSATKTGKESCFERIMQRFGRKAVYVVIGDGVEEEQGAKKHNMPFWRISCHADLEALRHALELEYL
Target sequence (Q15475 whole entry, looked up): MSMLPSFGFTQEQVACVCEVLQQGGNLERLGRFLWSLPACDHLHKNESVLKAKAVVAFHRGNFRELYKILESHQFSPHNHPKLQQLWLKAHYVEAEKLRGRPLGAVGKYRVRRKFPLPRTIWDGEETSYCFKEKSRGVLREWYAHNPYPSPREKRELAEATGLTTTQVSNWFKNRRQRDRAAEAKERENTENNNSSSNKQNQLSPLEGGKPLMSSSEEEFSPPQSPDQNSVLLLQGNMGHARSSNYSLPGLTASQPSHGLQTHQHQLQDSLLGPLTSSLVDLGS
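Six1/Eya2 binding was read as AlphaScreen signal after compounds were pinned into GST-Six1 plus His-tagged Eya2 (5X stock 250/500 nM) in pH 8.0 Tris/NaCl/TCEP buffer, beads added, then incubated 1 h, 37 C, dark.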
PINK1 modulator: A Quantitative High throughput Screen to Identify Chemical Modulators of PINK1 Expression | PINK1 immunofluorescence, high-content cytometry, 24 h | Potency, µM (series often up to 76.6 µM), without a hit: at the highest dose activation (PINK1 increase), hits mostly activators | hit rate 0.2% among 410,000 | AID 624263, 2012; active = well fitted activation curve with a large enough effect; inconclusive = small, poorly fitted or top-dose-only effect; inactive = flat fitted curve, though single readings scatter; cell line not stated here;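 also: potency is read from the fitted curve at half-maximal effect; % of control where 0% means no effect; nearly all actives have a fitted effect of over 65% in size; a mitochondrial uncoupler was the plate control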
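Stable cell line treated 24 h with compounds at 5 concentrations (CCCP controls), then fixed and immunostained for PINK1 plus nuclear and cell stains; PINK1 immunofluorescence quantified by laser-scanning microplate cytometry.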
TRPV1 potentiator: HTS Assay for Compounds that Act as Potentiators of the Vanilloid Receptor 1 | Transient receptor potential cation channel subfamily V member 1 (Homo sapiens), Q8NER1 | potentiation, % at 8.33 µM | hit rate 0.02% among 320,000 | TRPV1-expressing cells, Fluo-8 calcium influx, capsaicin EC20 potentiation; host cell line not named in the record; control for the full effect not named in the record; active means potentiation above 80%; inconclusive means 30% to 80%; inactive means below 30%; also: 0% is about no effect
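Cells expressing TRPV1 were dye-loaded with Fluo-8 and read kinetically: 10 s baseline, 3 min after compound (agonist portion), then 2 min after EC20 capsaicin (allosteric enhancer portion). Calcium-bound dye fluorescence at 480/520 nm.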
An asterisk follows results filed as active; ? = inconclusive; nt = no result given; ! = repeats disagree; [ ] = remark or other dose.

smiles,D2 potentiator,CtBP-E1A inh,D2 agonist,Sfp PPTase inh,Six1-Eya2 blk,PINK1 modulator,TRPV1 potentiator
CC(Oc1ccccc1C(N)=O)C(=O)Nc1ccc(S(=O)(=O)N2CCCC2)cc1 (stereo unspecified),-68,0,-1.7,nt,-7,-2.6%,-3
COc1ccccc1OCC(=O)N/N=C/C=C/c1ccc([N+](=O)[O-])o1,6,-3,8.7,0%,-12,?,-4
COc1ccc(C)cc1NC(=O)/C=C/c1ccc(OC)c(S(=O)(=O)N2CCOCC2)c1,-2,-22,-4.0,nt,-24,2.5%,-1
COC(=O)/C=C1/S/C(=N/NC(=O)c2ccccc2)NC1=O,-16,-12,-2.9,6%,6,0.0%,25
O=C1CC(c2ccc3c(c2)OCO3)CN1 (stereo unspecified),16,6,-3.2,21%,2,-0.6%,-12
COc1ccc(-c2ccc(SCC(=O)N3CCCC3)nn2)cc1OC,6,1,0.8,-21%,4,0.6%[38.3 µM],-5
COc1ccc(Br)cc1S(=O)(=O)Nc1ncn[nH]1,-10,-8,-1.9,18%,-11,0.1%,-9
COC(=O)c1ccc2c(=O)n(CCN3CCOCC3)c(=S)[nH]c2c1,-5,6,-2.7,-5%,4,2.0%[38.3 µM],-35
Oc1ccc2ccccc2c1C=NNc1ccccn1,-8,-21,3.8,nt,-18,2.4%,nt
CCCN1Cc2cccc(C(=O)NCCCOC(C)C)c2C1=O,-7,-2,-1.8,6%,2,-0.8%,-11
Cc1ccc(N2C(=O)[C@@H]3C(c4ccc(F)cc4)=NO[C@@H]3C2=O)cc1,-6,0,-3.5,18%,-7,0.7%,-6
COc1ccc(-c2cc(C(=O)Nc3ccc(O)cc3)c3ccccc3n2)cc1OC,15,-14,-1.6,8%,-11,0.4%,-14
COc1ccc(CN(C)C(=O)Cc2ccc(S(=O)(=O)N3CCOCC3)s2)cc1OC,-5,nt,-5.3,nt,-2,-0.6%,12
CCOC(=O)c1sc(NC(=O)C2CC(=O)N(c3ccc4c(c3)OCCO4)C2)nc1C (stereo unspecified),-6,nt,-3.1,nt,-17,0.6%,2
COC(=O)c1ccccc1NC(=O)CCS(=O)(=O)c1ccc(Br)s1,-4,11,-0.5,1%,12,-0.9%,-16
O=C(Nc1ccc(F)cc1)Nc1nnc([C@@H]2C[C@H](O)[C@@H](CO)O2)s1,-1,6,-1.7,nt,4,2.0%,nt
COc1ccc(C2CC(=O)c3cc(OC)ccc3O2)cc1 (stereo unspecified),-3,11,-3.1,nt,3,1.4%,nt
CC1=CC(C)(C)NC(=O)N1c1ccc(C)cc1,2,3,-1.7,11%,6,0.0%,-3
COc1ccc(N2CCN(C(=O)CSc3ccccc3N)CC2)cc1,0,13,-2.5,-24%,-1,0.6%[38.3 µM],4
O=C(Nc1ccc(C(=O)O)cc1)/C(=C/c1cccc(Br)c1)NC(=O)c1ccco1,-4,3,-3.8,20%,4,1.2%,10
CC1(Cc2ccc(F)cc2)C(=O)Nc2c(Cl)ccc(Cl)c21 (stereo unspecified),-9,1,-2.9,nt,0,15%,nt
Cn1c(SCC(=O)N(Cc2ccccc2)C(C)(C)C)nc2ccccc21,-14,5,-4.8,5%,1,0.4%[38.3 µM],-11
COc1cc(CNn2cnnc2)ccc1OCC(=O)NC1CCCCC1,-13,6,-1.0,13%,1,nt,-1
CCn1c2c(c(C)cc1=O)C(=O)CC(C)(C)C2,-13,0,-3.2,6%,-3,-0.2%,-12
CCc1ccccc1OCC(=O)NCC1COc2ccccc2O1 (stereo unspecified),-6,3,-3.2,nt,10,-0.8%,nt

Additional entries follow.
smiles,D2 potentiator,CtBP-E1A inh,D2 agonist,Sfp PPTase inh,Six1-Eya2 blk,PINK1 modulator,TRPV1 potentiator
Cc1ccc(C(c2c(C)[nH][nH]c2=O)c2c(C)[nH][nH]c2=O)cc1,1,-10,-2.2,-9%,1,-1.9%,8
Cn1nc(C(F)(F)F)c(/C=N/OC(=O)c2ccccc2)c1SCc1ccccc1Cl,-10,17,-3.5,13%,13,-2.0%,1
O=C(Nc1ccc2c(c1)OCO2)C(c1ccc(Cl)cc1)N1CCC2(CC1)OCCO2 (stereo unspecified),-7,-3,-1.9,3%,-2,-1.2%,-3
C/C(CC(=O)NCc1ccc(Cl)cc1)=N\NC(=O)Cc1ccccc1,15,8,-3.4,-3%,6,-1.8%,0
COc1ccccc1C=NNC(=O)c1ccncc1,-9,9,-0.1,nt,-4,1.2%,nt
COc1cc(Cl)ccc1OCc1cc(C(=O)NC(C)Cc2cccnc2)no1 (stereo unspecified),5,-1,-0.3,16%,9,-1.4%,24
Cc1ccc(Cn2c(C)c(C(=O)NCc3cccc(C(F)(F)F)c3)sc2=O)cc1,-2,3,7.5,nt,-5,0.4%,nt
COc1cccc(C(=O)Nc2ccc(NC(=O)c3cc4ccccc4o3)c(OC)c2)c1,-2,11,-1.8,4%,-2,6.8%,-3
C[C@@H](c1ccccc1)N1Cc2ccccc2Oc2cc(Br)ccc2S1(=O)=O,-5,-5,-8.0,nt,-1,5.0%,nt
COc1ccc(C(=O)NCCC2=CCCCC2)cc1S(=O)(=O)N1CCOCC1,1,2,3.0,nt,4,-1.8%,-10
Cc1ccc(S(=O)(=O)NCCC(=O)N2CCN(S(=O)(=O)c3ccccc3)CC2)cc1C,-3,0,-8.7,nt,3,0.3%,-2
CC(CC(=O)Nc1nc2ccccc2[nH]1)n1ccnc1 (stereo unspecified),-3,2,-1.1,-6%,0,-0.1%,2
CCN(CC)C(=O)C1=C(C)N(Cc2ccccc2)C(=O)C(CC(=O)NCCCN(C)C)C1 (stereo unspecified),5,6,-6.8,nt,1,0.1%,nt
O=C(NCc1ccccc1)c1cc(C2CCCN(S(=O)(=O)c3cccc4cccnc34)C2)on1 (stereo unspecified),-1,-3,-2.4,nt,-7,-0.1%,nt
O=C1NC2(CCCCC2)Cc2ccccc21,-16,12,-0.2,18%,0,nt,15
Cc1ccc(C2C=C(c3ccc4c(c3)OCO4)Nc3ncnn32)cc1 (stereo unspecified),18,1,1.0,-19%,-8,1.6%,-2
O=C(CCN1c2ccccc2Sc2ccccc21)OCC(=O)N1CCN(C(=O)c2ccco2)CC1,-16,-7,-1.4,11%,-7,0.6%,-9
O=C(COc1ccc(Br)cc1F)NC1CCN(Cc2ccccc2)CC1,-36,-8,-2.4,19%,4,-3.0%,3
CCOCCN1CCN(c2c3c(nc4cc(-c5ccc(F)cc5)nn24)CCC3)CC1,-2,3,2.1,-7%,2,4.1%,-2
CN(C(=O)COC(=O)c1cc([N+](=O)[O-])ccc1N1CCCC1)C1CCS(=O)(=O)C1 (stereo unspecified),-7,18,-1.1,9%,-4,0.7%,4
CC(C)CNC(=S)Nc1ccc(Oc2ccccc2)cc1,3,-11,-2.1,1%,-6,?,-1
CC(C)c1ccc(O)c(NC(=O)c2ncn[nH]2)c1,11,-17,2.5,23%,-19,-1.8%,1
O=C(/C=C/c1ccc(O)c(O)c1)OC(Cc1ccc(O)c(O)c1)C(=O)O (stereo unspecified),-13,-8,-2.8,79µM*!,?,0.7%,18
CNc1cncc(-c2ccc(C)cc2)n1,-11,-3,-5.3,nt,-9,1.3%,nt
COCc1c(N)c(C)nc(Cl)c1C#N,-1,-3,0.2,6%,-3,-0.5%,14
NC(=O)c1ccccc1NS(=O)(=O)c1ccccc1,-5,9,-2.0,17%,1,nt,-1
COC(=O)CNC(=O)c1ccccc1C,-17,0,1.7,12%,0,1.7%,-12

Profiles from above.
Profile of COC(=O)CNC(=O)c1ccccc1C : D2 potentiator = -17; CtBP-E1A inh = 0; D2 agonist = 1.7; Sfp PPTase inh = 12%; Six1-Eya2 blk = 0; PINK1 modulator = 1.7%; TRPV1 potentiator = -12
Profile of CCOCCN1CCN(c2c3c(nc4cc(-c5ccc(F)cc5)nn24)CCC3)CC1 : D2 potentiator = -2; CtBP-E1A inh = 3; D2 agonist = 2.1; Sfp PPTase inh = -7%; Six1-Eya2 blk = 2; PINK1 modulator = 4.1%; TRPV1 potentiator = -2

Some of the entries above in another layout:
Results follow in this order: D2 potentiator | CtBP-E1A inh | D2 agonist | Sfp PPTase inh | Six1-Eya2 blk | PINK1 modulator | TRPV1 potentiator
COc1ccccc1C=NNC(=O)c1ccncc1
    -9 | 9 | -0.1 | nt | -4 | 1.2% | nt
COc1cc(Cl)ccc1OCc1cc(C(=O)NC(C)Cc2cccnc2)no1 (stereo unspecified)
    5 | -1 | -0.3 | 16% | 9 | -1.4% | 24
